# Screening data (PubChem BioAssay)
# Arbovirus anti: blocks arbovirus infection | arbovirus infection cell-based antiviral screen | 200,000 compounds, 0.37% hits | inhibition, % at 10 µM;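 active = inhibition from about 30%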;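 note: bluetongue infection of BSR cells; cell survival read as ATP light after 72 h; 0% = infected wells without compound and 100% = uninfected wells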
# Mtb H37Rv: M. tuberculosis H37Rv growth inhibitors, H37Rv strain (AID 1626) | 220,000 compounds, 0.95% hits | M. tuberculosis H37Rv growth inhibition; higher % means a stronger effect | inhibition, % at 10 µM, or IC50 in µM where a hit was titrated;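 active = confirmed in a dose series; inconclusive = inhibition above 80% but not taken into the dose series; inactive = below 80% or under 30% at every dose of the series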;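 note: bacteria incubated seven days before Alamar blue readout; 0% = bacteria only wells and 100% = bacteria with antibiotic wells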
# RecA splice inh: blocks M. tuberculosis RecA intein splicing | P9WHJ3 | inhibition, %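 (about 9 µM by stock and volumes)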 | 290,000 compounds, 0.75% hits | cell-free RecA intein splicing, fluorescence; in the data active = inhibition above about 30%; inconclusive = no clear call, values can overlap the other calls;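 note: 0% = vehicle wells and 100% = reference inhibitor control wells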
# Target sequence (P9WHJ3 whole entry, looked up, canonical isoform): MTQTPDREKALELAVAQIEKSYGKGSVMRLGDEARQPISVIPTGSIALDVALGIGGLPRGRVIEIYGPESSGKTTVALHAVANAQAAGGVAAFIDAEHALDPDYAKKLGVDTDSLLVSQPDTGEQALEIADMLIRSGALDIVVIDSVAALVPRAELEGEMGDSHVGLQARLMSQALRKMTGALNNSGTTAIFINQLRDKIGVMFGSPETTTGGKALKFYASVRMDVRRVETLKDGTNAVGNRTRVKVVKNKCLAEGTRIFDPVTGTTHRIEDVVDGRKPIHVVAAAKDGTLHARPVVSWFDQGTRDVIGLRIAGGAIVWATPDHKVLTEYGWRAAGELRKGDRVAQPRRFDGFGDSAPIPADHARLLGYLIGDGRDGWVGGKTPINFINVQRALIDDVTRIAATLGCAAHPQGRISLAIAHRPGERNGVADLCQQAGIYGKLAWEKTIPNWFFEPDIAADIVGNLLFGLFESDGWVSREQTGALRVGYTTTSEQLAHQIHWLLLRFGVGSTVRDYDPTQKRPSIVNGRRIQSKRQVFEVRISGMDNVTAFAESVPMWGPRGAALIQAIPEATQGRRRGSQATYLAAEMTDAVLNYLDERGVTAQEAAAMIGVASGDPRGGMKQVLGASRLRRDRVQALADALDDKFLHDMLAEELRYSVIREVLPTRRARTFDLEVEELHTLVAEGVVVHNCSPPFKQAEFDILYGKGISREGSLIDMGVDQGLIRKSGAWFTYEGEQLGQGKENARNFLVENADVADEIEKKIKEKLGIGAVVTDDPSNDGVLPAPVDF
# YopH inh: YopH (Yersinia) phosphatase inhibition. fluorescence Ex485/Em525. inhibition, %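 (about 10 µM by stock and volumes)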. 140,000 compounds, 0.16% hits;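 active = inhibition of 50% or more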;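 note: controls were vehicle for no effect and minimum signal wells for full effect; inactives centre near -20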
# Mtb betalactam: beta-lactam sensitization of Mtb H37Rv | M. tuberculosis H37Rv growth with meropenem, percent inhibition; hits of this screen are not shown here | inhibition, % at 25 µM | 330,000 compounds, 0.27% hits | AID 434955;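 active = about 74% or more and at least 40 points above the plate without the antibiotic, then above 30% in a dose series; inconclusive = first-round hits that could not be retested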;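 note: growth measured after seven days incubation then overnight dye step; 0% = bacteria only wells and 100% = bacteria with antibiotic; twin plates without the antibiotic show which effects depend on it; some results filed as inactive read as strong as hits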
# Arbovirus anti repeat: recorded beside Arbovirus anti, whose call it bears; inhibition, %; measured here: 10K subset replicate screen; many hits read low in the repeat;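 first of two repeat runs on a subset; 0% = infected and 100% = uninfected wells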
# Starred values were filed as active, the others as inactive; ? = inconclusive; · = no result given.
SMILES,Arbovirus anti,Mtb H37Rv,RecA splice inh,YopH inh,Mtb betalactam,others
CC(C)NS(=O)(=O)c1ccc(NC(=O)C2CCCCC2)cc1,4,-3%,0.0,-23,0,
COc1ccc(NC(=O)Cn2ncn3nc(-c4ccc(OC)cc4)cc3c2=O)cc1,·,·,0.2,·,5,
CCCCn1c(N)c(N(CC(C)C)C(=O)c2ccc(S(=O)(=O)N3CCCCC3)cc2)c(=O)[nH]c1=O,·,·,0.4,·,-3,
O=C(OCn1ncc(Cl)c(Cl)c1=O)c1ccc(C(F)(F)F)cc1,-28,5%,80*,-50,·,
CC1CC(C)(C)NC(=S)N1CCC(=O)NCc1ccc(F)cc1 (stereo not given),2,3%,1.4,·,3,
COC(=O)c1[nH]c(C)c(/C(O)=C2\C(=O)C(=O)N(CCN(C)C)C2c2cc(OC)ccc2OC)c1C (stereo not given),-10,1%,-0.9,-23,-16,
Cn1cccc1/C=N/NC(=O)c1ccco1,1,0%,-2.8,·,2,
Cc1nn(C(=O)N2CCOCC2)c(C)c1C,1,0%,4.5,-27,-6,
CC(C)=C(NC(=O)c1ccccc1)C(=O)Nc1cccc(C)c1,·,·,1.3,·,-6,
COc1cc(-c2cc3nc4ccccc4n3c(N)c2C#N)cc(OC)c1OC,·,-7%,-82,·,3,
COc1ccc(S(=O)(=O)N2CCC(C(=O)N3CCOCC3)CC2)cc1Cl,-2,-2%,·,·,0,
COc1ccc(CCN(C)Cc2ccc(F)cc2F)cc1OC,71*,0%,-0.1,-3,0,
COc1cc(/C=N/Nc2nc3ccccc3s2)ccc1O,·,25%,·,·,72,
CCOC(=O)C1=C(COC(=O)c2ncc(Cl)c(Cl)c2Cl)NC(=O)NC1C (stereo not given),·,·,-1.0,·,-12,
CCCc1cc(Nc2cccc(OC)c2)n2ncnc2n1,-5,-1%,-1.0,-30,-13,
Cc1ccccc1CN1C(=O)C(C)S/C1=N/N=C/c1ccco1 (stereo not given),·,3%,1.7,·,-10,
O=C(CN(Cc1ccccc1)S(=O)(=O)c1ccccc1)NC1CC1,9,3%,-4.5,28,-5,Arbovirus anti repeat=4
O=C(Nc1cccc(C(F)(F)F)c1)Nc1ccc2[nH]c(=O)[nH]c2c1,·,·,-5.7,·,-8,
COc1cc(N2CCCC2)c(OC)cc1/C=C(/C#N)c1ccc(Br)cc1,0,-10%,0.1,-17,-10,
COc1cc(CNCCO)ccc1OCC(=O)Nc1ccc(Br)cc1,-29,-1%,0.2,16,-10,
Cn1c(=O)c(C(=O)Nc2ccccc2S(N)(=O)=O)c(O)c2ccccc21,·,-8%,0.8,·,12,
N#Cc1ccccc1Cn1c(-c2cscn2)nc2ccccc21,0,-4%,1.0,10,2,
COc1nc(-c2ccccc2)nc(C)c1CC(=O)O,-2,-5%,-3.1,·,-1,
CC(O)CNCCNCc1c(OCc2ccccc2)ccc2ccccc12 (stereo not given),-15,13%,0.8,-25,-6,
COc1ccc(OC)c(C(=O)N(C)C2CCCN(Cc3ccccc3F)C2)c1 (stereo not given),·,·,-3.0,·,2,
COc1cc(N=Cc2c(O)[nH]c3ccccc23)cc(OC)c1OC,7,2%,1.4,-35,5,
CCN(CC)S(=O)(=O)c1cccc(NC2=NCCCCC2)c1,·,-1%,-1.4,·,2,
CC(C)Cn1c(Br)nc2c1c(=O)n(CCC#N)c(=O)n2C,-1,5%,-3.6,1,-4,
COc1cccc(NC(=S)N2CCN(S(=O)(=O)c3ccccc3)CC2)c1,·,·,0.5,·,0,
CCCCN(C(=O)CSCc1c(C)noc1C)c1c(N)n(CCC)c(=O)[nH]c1=O,·,·,-2.2,·,-17,
Cc1cc(NC(=O)c2ccc(C)c([N+](=O)[O-])c2)no1,-5,1%,0.0,·,3,
COc1ccc(-c2nn(-c3ccccc3)cc2/C=C/C(=O)OCC(=O)Nc2ccccc2C#N)cc1,-9,-10%,-1.6,·,-6,
O=S(=O)(N/N=C/c1ccccc1F)c1ccccc1,-1,1%,·,·,-12,
CCc1ccc(CN2CCN(Cc3ccc(SC)cc3)CC2)cc1,24,-2%,0.6,·,-9,
Cc1ccc(NC(=O)C(C)C(=O)Nc2ccc(C)cc2)cc1,5,3%,0.6,·,-6,
CC1CCN(c2cc(Br)c([N+](=O)[O-])cc2F)CC1,·,0%,5.5,·,0,
COc1ccc(-c2nc(CS(=O)CC(=O)NC3CCCCCC3)c(C)o2)cc1 (stereo not given),·,·,1.0,·,-2,
CCOC(=O)c1sc(N(Cc2ccccc2)C(=O)CN2C(=O)CN(C)C2=O)nc1C,-14,3%,1.0,-46,-3,
CC(=O)Nc1ccccc1C(=O)OCC(=O)c1ccc2ccccc2c1,2,-9%,3.0,7,14,
COc1ccc(-c2nn(-c3ccccc3)cc2C(=O)NC(=S)Nc2cc(Cl)ccc2Cl)cc1,·,13%,0.8,·,5,
COc1ccc(NC(=O)COC(=O)c2cccc(S(=O)(=O)N(C)C)c2)cc1,5,6%,·,·,·,
COc1ccc(NC(=O)C(Br)C(C)C)cc1 (stereo not given),10,-11%,1.3,·,-4,
c1cc(C(c2nnnn2C2CCCC2)N2CCOCC2)ccn1 (stereo not given),5,-2%,1.3,-3,-3,
O=C(O)CSc1c2c(nc3cc(C(=O)N4CCOCC4)ccc13)CCCC2,2,0%,1.9,-17,-3,
CN1CCc2c(sc(NC(=O)C3CCN(S(=O)(=O)c4cccs4)CC3)c2C(N)=O)C1,·,·,-18,·,-9,
CNn1cnc2ccsc2c1=O,·,·,-0.7,·,-5,
Cc1c(C)c(C)c(/C=[N+](/C)[O-])c(C)c1C,1,1%,-0.7,-35,-9,
COc1cc(C2N(c3ccc(Cl)c(Cl)c3)C(=O)C3CCCN32)cc(OC)c1OC (stereo not given),0,-4%,0.3,-29,-7,
Cc1nn(-c2ccccc2)c(CC(C)(C)C(=O)O)c1C(=O)O,-1,-6%,-1.8,-44,-7,
CCCCCOC(=O)C1=C(C)Nc2ncnn2C1c1cccs1 (stereo not given),7,0%,3.8,-23,-1,
COc1ccc2ccccc2c1/C=N/NC(=O)c1cccc(Br)c1,-12,7%,1.2,-23,·,
Cc1ccccc1NC(=O)N1C2CCC1CC(O)(c1cccnc1)C2 (stereo not given),-5,-1%,-7.9,-1,-2,
COc1cccc(NC(=S)N(CCCN2CCN(C)CC2)Cc2ccco2)c1,6,2%,1.0,·,-8,
COc1cc2c(C(=O)N3CCCc4ccccc43)cn(C)c(=O)c2cc1OC,0,-10%,0.6,-20,11,
COc1ccccc1CC(NC(C)=O)C(=O)NC1CCN(C(=O)c2cccc(Cl)c2)CC1 (stereo not given),·,·,-1.7,·,8,
Cc1cc(-c2nnc(SCC(=O)Nc3ccc(F)c(F)c3)n2N)n[nH]1,·,·,-2.1,·,6,
Cc1ccc(S(=O)(=O)N2CCN(C(=O)CSc3nnnn3C)CC2)c(C)c1,-2,6%,0.1,·,4,
CN(C)c1ccc(S(=O)(=O)NCC(=O)NCC2CCCCC2)cc1[N+](=O)[O-],·,·,4.1,·,1,
C/C(=N\NC(=O)c1ccc(Cl)cc1)c1ccc(Br)s1,-16,?,-1.4,3,93,
Cc1ccc(CNC(=O)CCCc2nc3ccccc3s2)cc1,-3,3%,-0.5,-22,12,

# Next part:
SMILES,Arbovirus anti,Mtb H37Rv,RecA splice inh,YopH inh,Mtb betalactam,others
CC(C)Cc1ccc(C(C)C(N)=Nc2ccc(O)cc2)cc1 (stereo not given),·,·,3.1,·,-14,
COc1ccc(-n2c(SCC(=O)Nc3ccccc3)nc(O)cc2=O)cc1,·,-4%,-0.6,·,-1,
O=S(=O)(/N=C(/Nc1ccc(F)cc1F)c1ccc(Cl)cc1)c1ccccc1,0,-8%,-1.2,-12,-5,
CCOC(=O)c1c(NC(=O)CCC(=O)NCc2ccco2)sc2c1CCCC2,-7,-1%,1.5,-37,1,
CC(C)c1ccc(/C=N/NC(=O)c2cc(-c3cccc([N+](=O)[O-])c3)n[nH]2)cc1,·,-5%,·,·,-7,
COc1ccc(S(=O)(=O)N(CC(=O)NCc2ccco2)C2CCCCC2)cc1OC,1,-5%,2.5,-6,5,
OCCN1CCN(c2ncnc3c2sc2nc(N4CCOCC4)c4c(c23)CCC4)CC1,6,-4%,-0.9,-29,4,Arbovirus anti repeat=-8
C(=C\N1CCCCCC1)/c1nnnn1-c1ccc(-c2ccccc2)cc1,·,2%,7.8,·,3,
CCN1CCN(Cc2ccc(C)cc2)CC1,4,-7%,-2.2,13,8,
Clc1ccc2nc(CSCc3ccccc3)cn2c1,4,-8%,3.6,·,3,
Cc1ccccc1C(=O)NC1CCN(CC(=O)Nc2ccccc2Cl)CC1,·,·,2.1,·,-11,
O=C(NN1CCOCC1)c1cc(Cl)ccc1Cl,·,·,-0.5,·,-3,
O=C(CSc1nnc(NC(=O)c2ccccc2F)s1)NCC1CCCO1 (stereo not given),·,·,-1.6,·,-10,
COc1ccc(CN2CCC(C(=O)Nc3ccc(Oc4cccnc4)cc3)CC2)cc1,·,·,-6.3,·,-21,
O=C(CSC1=NC(=O)C(c2ccccc2)C(=O)N1)Nc1ccccc1[N+](=O)[O-] (stereo not given),5,75%,-0.8,·,99,
O=C(NCc1ccco1)/C(=C/c1ccco1)NC(=O)c1ccco1,-7,1%,-6.0,·,1,
COc1ccc(/C=N/NC(=O)CCn2c3ccccc3c3ccccc32)cc1OC,-4,0%,0.0,-4,0,
CC(C(=O)N1CCc2ccccc21)N1CCc2ccccc2C1 (stereo not given),7,0%,2.8,-2,-7,
COc1ccc(N2CCN(C(=O)c3cn(CC4CCCCC4)nn3)CC2)cc1,·,·,-6.5,·,95,
CCOc1cc(-c2nc3n(c(=O)c2C#N)CCS3)ccc1O,·,·,-0.8,·,6,

# Structural class, the entries above containing bromine
SMILES,Arbovirus anti,Mtb H37Rv,RecA splice inh,YopH inh,Mtb betalactam,others
COc1cc(N2CCCC2)c(OC)cc1/C=C(/C#N)c1ccc(Br)cc1,0,-10%,0.1,-17,-10,
COc1cc(CNCCO)ccc1OCC(=O)Nc1ccc(Br)cc1,-29,-1%,0.2,16,-10,
CC(C)Cn1c(Br)nc2c1c(=O)n(CCC#N)c(=O)n2C,-1,5%,-3.6,1,-4,
CC1CCN(c2cc(Br)c([N+](=O)[O-])cc2F)CC1,·,0%,5.5,·,0,
COc1ccc(NC(=O)C(Br)C(C)C)cc1 (stereo not given),10,-11%,1.3,·,-4,
COc1ccc2ccccc2c1/C=N/NC(=O)c1cccc(Br)c1,-12,7%,1.2,-23,·,
C/C(=N\NC(=O)c1ccc(Cl)cc1)c1ccc(Br)s1,-16,?,-1.4,3,93,

# Two compounds drawn at random from the list so far:
SMILES,Arbovirus anti,Mtb H37Rv,RecA splice inh,YopH inh,Mtb betalactam,others
O=C(CSc1nnc(NC(=O)c2ccccc2F)s1)NCC1CCCO1 (stereo not given),·,·,-1.6,·,-10,
CC(C)c1ccc(/C=N/NC(=O)c2cc(-c3cccc([N+](=O)[O-])c3)n[nH]2)cc1,·,-5%,·,·,-7,

# Next section:
SMILES,Arbovirus anti,Mtb H37Rv,RecA splice inh,YopH inh,Mtb betalactam,others
O=C(O)Cc1sc(Nc2cccc3ccccc23)nc1-c1ccc(Cl)cc1,·,·,-0.7,·,5,
CN(C)C(=O)Oc1ccc(-c2nnco2)cc1,5,-5%,-2.5,·,10,Arbovirus anti repeat=2
O=C(N/N=C/c1sc(=O)n(-c2ccccc2)c1Cl)c1ccccc1,-7,5%,2.5,-22,4,
Cc1ccc(S(=O)(=O)CCC(=O)N2CCN(c3ccc(Cl)cc3)CC2)cc1,17,6%,0.7,-13,-5,
COCCN(C(=O)CSc1nc2ccc(C)cc2[nH]1)c1c(N)n(Cc2ccccc2)c(=O)[nH]c1=O,3,4%,1.0,·,-5,
CC(C)C(=O)NC(=S)Nc1c(Cl)ccc2nsnc12,·,1%,1.1,·,0,
O=C(NCCN1CCOCC1)c1ccc(Cl)c([N+](=O)[O-])c1,·,·,-1.9,·,0,
CN(C(=O)C1CCOC1)c1nnc(-c2ccncc2)s1 (stereo not given),9,5%,1.4,-32,1,
N#Cc1cn(CC(=O)NCC2CCCO2)c2ccccc12 (stereo not given),7,-15%,-2.5,-33,3,Arbovirus anti repeat=4
OCCC1CN(Cc2nc3ccccc3[nH]2)CCN1C1CCCC1 (stereo not given),-1,-3%,1.0,·,-6,
Cc1cc2cc(CNC(=O)c3cc4ccccc4o3)ccc2n1C,9,7%,6.1,-19,77,
Cc1ccc(Nc2ncnc3c2cnn3C)c(C)c1,·,·,1.2,·,0,
O=C(CSc1nnc(CNC(=O)c2ccco2)o1)Nc1nc2ccccc2s1,6,14%,-5.1,·,40,
Cc1ccc(C(=O)CCNc2ccccc2)o1,-1,5%,4.7,-19,50,
COc1cc(OC)cc(C(=O)NC2CCN(CCCOc3ccccc3)CC2)c1,·,·,1.8,·,1,
Cc1ccc(-c2cc(-c3ccccc3)no2)c(O)c1,36*,17%,-3.0,-22,1,
CCOc1ccc2cc(C(=O)NCc3ccccc3)c(=N)oc2c1,·,·,-0.5,·,-1,

# A portion of the library; rates above refer to the full screens.
